High-throughput results as filed in PubChem BioAssay.
PINK1 modulator: A Quantitative High throughput Screen to Identify Chemical Modulators of PINK1 Expression | PINK1 immunofluorescence, high-content cytometry, 24 h | Potency, µM (titrated, usually from 76.6 µM), inactives show at the highest dose activation (PINK1 increase), usual class: activators | 410,000 compounds, 0.2% hits; active = well fitted activation curve with a large enough effect; inconclusive = small, poorly fitted or top-dose-only effect; inactive = flat fitted curve, though single readings scatter; cell line not stated here;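 further: potency means the concentration at half of the fitted maximal effect; % of control where 0% means no effect; nearly all actives have a fitted effect of over 65% in size; a mitochondrial uncoupler was the plate control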
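Readout is PINK1 immunofluorescence, quantified alongside mitochondrial, cell and nuclear markers by laser-scanning microplate cytometry. Cells from a stable line were exposed to compound titrations (5 concentrations) for 24 hours, with CCCP controls.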
TRPML1 ag: qHTS for Agonists of the Human Mucolipin Transient Receptor Potential 1 (TRPML1); activation, % (no concentration beside the values); 410,000 compounds, 0.12% hits; Mucolipin-1 (Homo sapiens), Q9GZU1; TRPML1-expressing cells, Ca2+ dye fluorescence, FDSS; host cell line not named in the record; reference of the full effect not given here; in the data active = activation above about 50%; inconclusive = about 30% to 50%; inactive = below about 30%; further: 0% is about no effect; the text of the record puts the active cut at 80%
Target sequence (Q9GZU1 whole entry, looked up): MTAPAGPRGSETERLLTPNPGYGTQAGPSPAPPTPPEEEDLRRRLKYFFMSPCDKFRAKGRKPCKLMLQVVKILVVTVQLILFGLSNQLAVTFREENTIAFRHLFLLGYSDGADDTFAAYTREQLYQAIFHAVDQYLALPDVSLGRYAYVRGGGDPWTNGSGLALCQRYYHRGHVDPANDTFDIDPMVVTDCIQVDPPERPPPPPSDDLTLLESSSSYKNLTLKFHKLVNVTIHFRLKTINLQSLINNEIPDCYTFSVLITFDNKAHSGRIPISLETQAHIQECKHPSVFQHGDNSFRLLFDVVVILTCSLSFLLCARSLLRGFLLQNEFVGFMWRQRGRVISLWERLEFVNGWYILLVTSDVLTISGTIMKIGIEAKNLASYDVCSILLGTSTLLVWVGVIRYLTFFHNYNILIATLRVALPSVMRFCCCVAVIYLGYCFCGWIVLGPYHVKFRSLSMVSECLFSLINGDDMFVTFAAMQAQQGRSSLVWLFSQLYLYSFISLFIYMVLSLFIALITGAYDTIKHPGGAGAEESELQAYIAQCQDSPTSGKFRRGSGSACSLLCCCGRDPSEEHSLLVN
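Cells: TRPML1-DL, 1X Tet inducer, ~16 h at 37 degrees C/5% CO2. Dye: ABD Ca8 no-wash + quencher, 45-90 min RT. Read: 10 s baseline, compound add, 110 s agonist phase; 54-4 EC80 (4uM final), 110 s antagonist phase.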
ClpP mod: qHTS Assay for Activators of ClpP. ATP-dependent Clp protease proteolytic subunit (Bacillus subtilis (strain 168)), P80244. purified B. subtilis ClpP, FRET peptide cleavage, 20 min. Potency, µM (highest dose often 57.5 µM), inactives show at the top dose activity change, negative = active. 340,000 compounds, 1.9% hits; active = well fitted falling curve with a large enough effect; inconclusive = small, poorly fitted or top-dose-only effect; inactive = no such curve, though single readings can be large or run the other way; further: potency means the concentration at half of the fitted maximal effect; the source files actives as falling curves though it sought activators and does not explain the sign; nearly all actives have a fitted effect of over 65% in size; many hits overshoot -100%
Target sequence (P80244 whole entry, looked up): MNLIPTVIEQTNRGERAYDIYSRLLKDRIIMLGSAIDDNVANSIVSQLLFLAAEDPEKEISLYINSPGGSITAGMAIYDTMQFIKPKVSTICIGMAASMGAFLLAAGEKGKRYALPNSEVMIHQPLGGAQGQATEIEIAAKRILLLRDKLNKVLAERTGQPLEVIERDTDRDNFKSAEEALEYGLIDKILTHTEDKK
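Purified B. subtilis ClpP, 10 microg/mL final in Tris/HCl pH8 with KCl, BSA, glycerol and Tween-20, cleaved an Abz/nitrotyrosine-quenched decapeptide. Fluorescence (ex 320, em 430) was read at 0 and 20 min at room temperature. Delta was normalized to 5.8 microM ADEP and DMSO/no-enzyme controls.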
Sfp inh: qHTS Assay for Inhibitors of Bacillus subtilis Sfp phosphopantetheinyl transferase (PPTase) | 4'-phosphopantetheinyl transferase ffp (Bacillus subtilis), Q9F4F7 | Biochemical Sfp PPTase activity, qHTS | Potency, µM, for the others: max response, negative = inhibition, usual class: inhibitors | 310,000 compounds, 3.5% hits | AID 1490, 2009; active means well fitted inhibition curve with a large enough effect; inconclusive means small, poorly fitted or top-dose-only effect, or another doubt; inactive means no such curve, though single readings can be large or run the other way;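 further: the enzyme is Sfp with the accession as filed and its product quenches rhodamine fluorescence; potency means the concentration at half of the fitted maximal effect; 0% = enzyme reaction without inhibitor and -100% = no enzyme wells; top concentration of the series not given in the record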
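After 15 min at room temperature with compound, 15 nM Sfp received 5 uM rhodamine-CoA plus 12.5 uM BHQ-2-ybbR (50 mM Hepes pH 7.6, 10 mM MgCl2). Rate came from the fluorescence difference over 30 min, ex 525/em 598 nm.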
Menin-MLL FL inh: qHTS Assay for Inhibitors Targeting the Menin-MLL Interaction in MLL Related Leukemias: Competition With Fluorescein Labeled MLL-derived Peptide; Fluorescence polarization, fluorescein-MLL peptide displacement from menin; FP activity change, % at 61.4 µM; 290,000 tested, under 10 active; inconclusive = falling polarisation curve, or a change in total fluorescence; inactive = total fluorescence flat and polarisation flat or rising; no compound was filed as active; the % refers to the polarisation; negative = inhibition;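 further: % of control where 0% means no effect; inhibitors lower the polarisation; unlabelled MLL peptide was the positive control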
TRPML1 inh: qHTS for Inhibitors of the Human Mucolipin Transient Receptor Potential 1 (TRPML1). 390,000 compounds, 0.02% hits. AID 624415, 2012. TRPML1-inducible cells, Ca2+ dye fluorescence, FDSS; hits give low values; inhibition of EC80 agonist-evoked calcium signal. activity change, negative = inhibition, % (no concentration beside the values); in the data active means activity change below about -50%; inconclusive means about -30% to -50%; inactive means above about -30%;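 further: stimulus is agonist 54-4 at its EC80 concentration; on the % scale 0 is the no-effect control and ±100 the full control effect; compound concentration not given in the record; the text of the record puts the active cut at -80%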
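Calcium fluorescence in TRPML1-DL cells induced overnight with Tet: a 110 s read after compound pin addition, then a 110 s antagonist read after challenge with 54-4 at 4 uM final (EC80).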
TRPV1 potentiator: HTS Assay for Compounds that Act as Potentiators of the Vanilloid Receptor 1; Transient receptor potential cation channel subfamily V member 1 (Homo sapiens), Q8NER1; TRPV1-expressing cells, Fluo-8 calcium influx, capsaicin EC20 potentiation; host cell line not named in the record; control for the full effect not named in the record; potentiation, % at 8.33 µM; 320,000 compounds, 0.02% hits; AID 540277, 2011; active means potentiation above 80%; inconclusive means 30% to 80%; inactive means below 30%; further: 0% is about no effect
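TRPV1-expressing cells were cultured overnight at 35.5C and loaded with Fluo-8 calcium dye for 40 to 90 min at room temperature. After a 10 s baseline, compound was added and calcium influx was read kinetically for 3 min (ex 480/em 520 nm).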
* hit, by the source's call; ? = inconclusive; . = no result given; [ ] = another dose, or the depositor's remark.

SMILES	PINK1 modulator	TRPML1 ag	ClpP mod	Sfp inh	Menin-MLL FL inh	TRPML1 inh	TRPV1 potentiator
C/C=C/C1=CC(=O)C[C@H](c2ccc(OC)c(OC)c2)C1	2.1%	0.8	-0.2%	.	.	-2	4
C=CCN1C(=O)C2(OCCCO2)c2ccccc21	-0.9%	-0.6	0.2%	18%	3.8	2	4
COc1ccc(C(C)=O)cc1COc1cccnc1[N+](=O)[O-]	11%	-1.4	-1.6%	9%	-3.2	16	2
CC(C)(C)c1ccc(Cn2c(=O)cnc3ccccc32)cc1	7.5%	3.6	.	-17%	-8.2	10	-6
O=C(CCCN1C(=O)C(c2ccccc2)Oc2cccnc21)Nc1cccc(F)c1 (configuration not stated)	1.5%	0.4	-1.0%	6%	4.8	22	-4
O=C(Nc1cccc(C(=O)N2CCCC2)c1)c1ccccc1Cl	-1.4%[38.3 µM]	1.1	-0.5%	2%	-1.2	-2	8
COc1ccccc1/C=N/NC(=O)CSc1ccc2ccccc2n1	6.9%	3.1	.	-14%	8.9	7	22
CC(=O)OC1COC(n2ccc3cc([N+](=O)[O-])ccc32)C(OC(C)=O)C1OC(C)=O (configuration not stated)	-0.6%	-0.8	-0.6%	9%	1.7	4	7
O=C(COc1ccc2c3c(c(=O)oc2c1)CCCC3)NCCCN1CCOCC1	-0.4%	-0.3	3.7%	12%	-2.8	3	4
CCn1c(C)cc(C(=O)COC(=O)CNC(=O)c2ccco2)c1C	-0.2%	-0.2	-0.1%	.	.	16	.
CCC(C)N(C)C1CCN(C(=S)Nc2cccc(OC)c2)CC1 (configuration not stated)	-0.9%	1.3	.	-1%	0.7	0	6
CC1(C2CC2)NC(=O)N(CC(=O)Nc2ccccc2C#N)C1=O (configuration not stated)	2.6%	-0.5	.	.	.	2	29

Next part; the last three above are carried over.
SMILES	PINK1 modulator	TRPML1 ag	ClpP mod	Sfp inh	Menin-MLL FL inh	TRPML1 inh	TRPV1 potentiator
CCn1c(C)cc(C(=O)COC(=O)CNC(=O)c2ccco2)c1C	-0.2%	-0.2	-0.1%	.	.	16	.
CCC(C)N(C)C1CCN(C(=S)Nc2cccc(OC)c2)CC1 (configuration not stated)	-0.9%	1.3	.	-1%	0.7	0	6
CC1(C2CC2)NC(=O)N(CC(=O)Nc2ccccc2C#N)C1=O (configuration not stated)	2.6%	-0.5	.	.	.	2	29
COCc1cc(N2CCN(c3ccccc3F)CC2)nc(-c2ccccc2)n1	0.2%	1.1	.	-7%	1.9	18	5
O=C(NNC(=O)c1cc(-c2ccccc2)nn1-c1ccccc1)c1ccccc1	8.3%	0.0	-2.9%	3%	3.8	11	-13
N#Cc1cccc(-c2cncnc2NCc2cccs2)c1	1.9%	.	.	24%	-0.7	.	.
CSc1nc2nc3c(cn2n1)C(=O)CC(c1ccccc1)C3 (configuration not stated)	-4.4%[38.3 µM]	5.3	0.6%	6%	13	11	6
O=C(CC1CCCC1)Nc1cc(S(=O)(=O)N2CCOCC2)ccc1O	-1.1%	-0.3	-1.3%	.	.	-4	-1
Cc1cn2c(nc1=O)OC1C(O)C(COC(=O)c3ccccc3)OC12 (configuration not stated)	.	-0.5	0.4%	16%	4.0	-11	-10
Cc1nc([N+](=O)[O-])c(Sc2nc3ccc([N+](=O)[O-])cc3[nH]2)n1Cc1ccccc1	-5.0%	0.9	1.2%	-7%	-3.4	-9	5
COc1ccc(/C=C(/NC(=O)c2ccccc2)C(=O)N2CCCC2)cc1OC	0.2%	-0.2	.	12%	-6.2	12	-3
CC1(N=Cc2cc(Cl)ccc2O)COP(=O)(NC2CCCC2)OC1 (configuration not stated)	2.8%	0.6	-1.5%	.	.	43	.
COC(=O)c1ccc(CSc2nc3c(c(=O)n2-c2ccc(F)cc2)SCC3)o1	1.2%[38.3 µM]	2.1	0.4%	8%	0.2	16	-22
CC1c2cc3c(cc2CCN1C(=O)c1ccc(C(F)(F)F)cc1)OCCCO3 (configuration not stated)	2.6%	?	-0.3%	18%	.	-7	23
NS(=O)(=O)c1ccc(CCNC(=O)Cc2c[nH]c3ccccc23)cc1	-1.0%	-0.4	0.9%	-11%	4.5	-7	21
Cc1cc(C)cc(NC(=O)C(OC(=O)c2ccc(O)cc2)c2ccccc2)c1 (configuration not stated)	1.7%	4.3	-1.2%	.	.	1	11
COC(C(=O)N/N=C(\C)c1ccc(C)cc1)c1ccccc1 (configuration not stated)	0.9%	0.7	.	3%	2.3	36	7
COCCCN1C(=O)N(c2ccccc2)C(=O)C1CC(=O)Nc1ccccc1 (configuration not stated)	0.9%	.	-0.4%	15%	2.7	.	6
Cc1cccc(/N=C/c2c(O)ccc3oc4c(c23)CCCC4)n1	4.7%	-0.9	-8.8%	-18%	2.9	3	?
COc1ccc(-c2cc(=O)oc3c4c(ccc23)OCN(Cc2cccc(OC)c2)C4)cc1	1.8%	-0.6	32µM*	.	.	11	.
Cc1cc(Br)ccc1OCC(=O)NNC(=O)c1ccc(NC(=O)C2CC2)cc1	7.4%	-0.6	-5.5%	-28%	-0.6	-6	14
COc1ccc(/C=C/C(=O)Oc2cccc(/C=N/NC(=O)Cc3ccc(Br)cc3)c2)cc1	9.5%	1.1	-28%	?	4.8	28	0
Cc1cccc(-n2cnc3cc([N+](=O)[O-])ccc32)c1	0.3%	-0.6	1.1%	-27%	4.3	-3	-8
COc1ccc2nc(N/C(N)=N/S(C)(=O)=O)nc(C)c2c1	-1.2%	.	3.1%	11%	-2.3	.	-9
COc1cccc(CNc2nc3nc(C)c(Cl)c(=O)n3[nH]2)c1	2.0%	1.1	.	-16%	1.6	16	3
NC(=O)c1ccccc1NS(=O)(=O)c1cccs1	0.8%	0.0	-12%	8%	0.5	16	12
COc1ccc(N(CC(=O)Nc2cccc(SC)c2)S(C)(=O)=O)cc1Cl	-0.3%	0.1	-0.3%	21%	0.2	-2	8
C=CCn1c(CC(=O)OC)csc1=Nc1ccc(C(C)=O)cc1	3.6%[38.3 µM]	0.1	-2.2%	9%	0.4	-7	-5
CCOC(=O)c1cccc(NC(=O)CC2C(=O)N(c3ccc(F)cc3)C(=O)N2Cc2cccc(OC)c2)c1 (configuration not stated)	0.5%	-0.3	1.9%	.	.	-8	.
CC1CCCCN1CCNC(=O)c1ccc2c(=O)n(Cc3ccc(Cl)cc3)c(=S)[nH]c2c1 (configuration not stated)	-1.7%	0.1	.	-24%	.	2	-38
COc1cccc(/C=N/Nc2nnc(C)n2N)c1OCc1ccccc1Cl	1.7%	0.2	-1.8%	-7%	?	2	-13
NCC(=O)NCC(=O)OCc1ccccc1	2.4%	-0.5	0.5%	34%[activator]	3.0	-8	7
CSc1nc(C)c2c(n1)N(c1cccc(C)c1)CC2	-1.0%	1.5	?	-26%	1.7	8	-13
COc1ccc(-n2c(C)cc(-c3cn4cccc(C)c4n3)c2C)cc1	4.4%	-0.1	?	7%	0.1	-7	6
C#CCSc1nccc(-c2nn(-c3ccc(C)cc3)ccc2=O)n1	-1.5%	4.0	?	79µM*	-1.9	-7	-7
COC(=O)c1sc(S(=O)(=O)NC(Cc2ccccc2)C(=O)O)c(C(=O)OC)c1C (configuration not stated)	-1.0%	0.2	0.9%	.	.	25	2
CCOC(=O)C1(C)CCN1C(=O)c1c(F)cccc1F (configuration not stated)	0.3%	-0.4	-1.0%	.	.	.	.
CC(=O)Nc1ccc(-c2csc(NC(=O)CCNC(=O)c3ccco3)n2)cc1	0.3%	0.6	.	.	.	-3	.
Cc1ccc(NC(=O)Cn2nc(C(F)(F)F)c3c2CCC3)cc1	6.9%[38.3 µM]	0.3	0.8%	21%	1.6	0	14
COc1ccccc1CN(C)C(=O)C(NC(=O)Cc1cccc2ccccc12)C(C)C (configuration not stated)	0.7%	1.0	.	10%	2.4	6	7
COCCCN1C(=O)C(=O)/C(=C(/O)c2ccc(OC(C)C)cc2)C1c1cccnc1 (configuration not stated)	0.0%	0.1	-1.8%	15%	4.3	54	-2
CCCCNC(=O)C1CC(c2c(Cl)cccc2Cl)=NO1 (configuration not stated)	0.6%	-0.1	0.5%	0%	1.9	-4	17
C=CCOc1ccc(Cl)cc1C(=O)O	-0.9%	-0.4	-13%	-3%	-1.8	-17	5
Cn1c(CNc2cccc(C(F)(F)F)c2)n[nH]c1=S	-2.1%	0.5	-1.1%	-13%	-3.6	-17	-1
O=[N+]([O-])c1ccc(Cl)cc1N1CCCCC1	8.4%	0.1	-2.3%	13%	-0.2	3	-2
CCOc1ccc2nc(SCC(=O)Nc3ccc(F)cc3)nc(-c3ccccc3)c2c1	-0.8%	0.2	-3.6%	.	.	-28	.
Cc1nc2ccccc2c(=O)n1NC(=O)Nc1ccccc1	.	0.3	1.9%	8%	4.0	5	0
O=C(NCc1ccco1)c1ccc2c(=O)n(CC3CCCO3)c(=S)[nH]c2c1 (configuration not stated)	-0.1%	0.7	-1.4%	-12%	4.0	-3	-6
Cn1nc(-c2ccccc2)c(-c2nc(-c3ccc(Cl)cc3)no2)c1Cl	7.5%	-1.0	1.9%	-2%	8.3	32	6
CC(C)OP(=O)(OC(C)C)C(Nc1ccccc1)c1cccc([N+](=O)[O-])c1 (configuration not stated)	0.8%	0.7	.	11%	2.4	23	16
COc1cc(Br)cc2cc(S(=O)(=O)c3ccccc3)c(=O)oc12	5.7%	0.1	-1.5%	.	.	1	.
CCOc1cc(C)c(Cl)cc1S(=O)(=O)N(CC)CC	3.7%	2.3	0.7%	1%	0.4	-6	-11
COc1ccc(C(=O)CN2C3=NCCCN3c3ccccc32)cc1OC	-1.0%	1.1	-9.8%	7%	0.0	4	4
